Source: PubChem BioAssay
UCH37 inh: inhibitors of human deubiquitinating enzyme UCH37; inhibition, % (concentration not given with the values); Q9Y5K5; hit rate 0.33% among 330,000; purified proteasome/UCH37, Ub-AMC cleavage fluorescence;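 active means mean of two replicates above 20%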;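 further: 0% = compound-free wells with enzyme and 100% = wells lacking proteasome; stock transfer was 100 nL into about 20 µL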
Target sequence (Q9Y5K5 whole entry, looked up): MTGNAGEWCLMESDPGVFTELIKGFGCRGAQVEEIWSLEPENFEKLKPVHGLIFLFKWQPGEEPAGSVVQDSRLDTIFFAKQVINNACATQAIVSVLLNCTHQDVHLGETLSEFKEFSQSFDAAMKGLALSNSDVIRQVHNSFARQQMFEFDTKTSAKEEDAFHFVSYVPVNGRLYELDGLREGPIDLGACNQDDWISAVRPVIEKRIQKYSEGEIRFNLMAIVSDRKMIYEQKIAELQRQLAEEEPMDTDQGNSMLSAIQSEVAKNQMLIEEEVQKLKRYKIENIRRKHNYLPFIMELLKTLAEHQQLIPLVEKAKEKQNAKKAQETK
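assay system = human UCH37 enzyme supplied as purified proteasome complex | amount = proteasome at 0.15 nM in the dispensed enzyme solution | schedule = 30 min compound-proteasome preincubation then 25 min substrate reaction, room temperature | measured by = fluorescence, ex 355 nm, em 460 nm | benchmarks = no-proteasome wells (full inhibition) and compound-free wells (no inhibition)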
E coli growth: blocks Escherichia coli growth | OD600, 23 h; hits give low values | OD600 absorbance (concentration not given with the values) | hit rate 0.21% among 330,000 | AID 1053175;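 active means OD600 absorbance below the run mean of sample wells minus 3.6 SD, in any replicate, cut at about 0.56 in these data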;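 further: stock transfer was 300 nL into about 60 µL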
* hit, by the source's call.

The first six compounds, to show the layout:
no.	Compound	E coli growth	UCH37 inh
1	CCOC(=O)c1c(N=CN(C)C)sc(C=O)c1-c1ccccc1	0.69	-4.8
2	COc1ccc(C=NNC(=O)CC(=O)NCc2cccnc2)cc1	0.71	-5.5
3	COc1cc(C=NNC(=O)c2ccc(N(C)S(=O)(=O)c3ccccc3)cc2)cc(OC)c1OC	0.68	-8.1
4	CCOc1ccc(C=NOC(C)C(=O)NCc2ccc3c(c2)OCO3)cc1 (centres undefined)	0.69	3.6
5	CN(C)c1ccc(C=NNC(=O)CC#N)cc1	0.76	-158
6	CC(=NNC(=O)CNc1cccc(Cl)c1C)C1CC1	0.69	1.3

This part in full, from the first entry:
no.	Compound	E coli growth	UCH37 inh
1	CCOC(=O)c1c(N=CN(C)C)sc(C=O)c1-c1ccccc1	0.69	-4.8
2	COc1ccc(C=NNC(=O)CC(=O)NCc2cccnc2)cc1	0.71	-5.5
3	COc1cc(C=NNC(=O)c2ccc(N(C)S(=O)(=O)c3ccccc3)cc2)cc(OC)c1OC	0.68	-8.1
4	CCOc1ccc(C=NOC(C)C(=O)NCc2ccc3c(c2)OCO3)cc1 (centres undefined)	0.69	3.6
5	CN(C)c1ccc(C=NNC(=O)CC#N)cc1	0.76	-158
6	CC(=NNC(=O)CNc1cccc(Cl)c1C)C1CC1	0.69	1.3
7	COc1ccc(C(=O)Oc2ccc(C=NNC(=O)c3ccccc3OC)cc2[N+](=O)[O-])cc1	0.71	0.1
8	O=C(Cn1cc(C(F)(F)F)ccc1=O)NN=Cc1ccc(Cl)cc1	0.65	1.5
9	CC(=NNS(=O)(=O)c1c(C)cc(C)cc1C)c1ccncc1	0.68	4.0
10	Cc1ccc(-c2ccc(C=NNC(=O)Cc3nnc(N)s3)o2)cc1Cl	0.72	-1.0
11	Cc1nnc(NN=Cc2cccc(OCc3ccc(Cl)c(Cl)c3)c2)n1N	0.61	6.9
12	CC(C)NC(=S)NN=Cc1ccccc1[N+](=O)[O-]	0.66	-0.4
13	CCCn1c(NN=C(C)/C=C/c2ccccc2)nc2c1c(=O)[nH]c(=O)n2C	0.67	-16
14	O=C(NN=Cc1ccncc1)c1cccc(NC(=O)c2ccccc2Cl)c1	0.68	-1.6
15	CC(=NNS(=O)(=O)c1ccc(CC(C)C)cc1)c1ccncc1	0.71	1.2
16	CC(C)Oc1ccc(C=NNC(=O)C2CCCN2S(=O)(=O)c2ccc(Cl)cc2)cc1 (centres undefined)	0.77	5.8
17	CCC(C)=NN=Cc1c(O)n(CC)c2cc(C3=NNC(=O)CC3)ccc12	0.71	9.3
18	S=c1[nH]ncn1N=Cc1ccccc1	0.68	2.2
19	CCCNC(=O)CC(C)=NNC(=O)C(=O)Nc1ccccn1	0.7	1.7
20	CC(=NNC(=O)CCc1ccccc1)c1ccco1	0.69	-1.0

Three of the entries above in order of the UCH37 inh value, descending.
item	Molecule	UCH37 inh
17	CCC(C)=NN=Cc1c(O)n(CC)c2cc(C3=NNC(=O)CC3)ccc12	9.3
11	Cc1nnc(NN=Cc2cccc(OCc3ccc(Cl)c(Cl)c3)c2)n1N	6.9
8	O=C(Cn1cc(C(F)(F)F)ccc1=O)NN=Cc1ccc(Cl)cc1	1.5

Next records:
no.	Compound	E coli growth	UCH37 inh
21	CC(C)(C)OC(=O)NCCC(=O)NN=Cc1cccc2cccnc12	0.7	8.6
22	Cc1cc(=O)oc2cc(OCC(=O)NN=Cc3ccccc3O)ccc12	0.7	-6.3
23	COc1ccccc1C=NNC(=S)Nc1cccnc1	0.68	5.5
24	O=C(CN1CCN(S(=O)(=O)c2ccc(Br)cc2)CC1)NN=Cc1cc([N+](=O)[O-])ccc1Cl	0.68	3.8
25	Fc1cccc(F)c1C=NN1CCOCC1	0.68	-1.7
26	Nc1nonc1-n1nnc(C(=O)NN=Cc2ccc(OCc3ccccc3)cc2)c1COc1ccc(F)cc1	0.77	-12
27	Cc1cccc(NC(=S)NN=Cc2cccc(O)c2)c1C	0.71	2.9
28	Cc1n[nH]c(=O)nc1NN=Cc1ccc(O)c([N+](=O)[O-])c1	0.67	21*
29	COc1ccc(C(=O)NN=C2SCC(=O)N2Cc2ccc3c(c2)OCO3)c(OC)c1	0.73	1.5
30	COc1cccc(C=NNc2nc(N3CCCC3)nc(N3CCCC3)n2)c1O	0.69	0.9
31	COc1cc(C=NNC(=S)NC2CC3CC2C2C=CCC32)ccc1O (centres undefined)	0.65	2.4
32	COc1cc(C=NNC(=O)c2cccc(NC(=O)c3ccccc3Cl)c2)ccc1O	0.7	-0.5
33	CCCCCCn1cnc2c(c1=O)c1nc3ccccc3nc1n2N=Cc1ccco1	0.72	-8.6
34	Cc1cc(=O)[nH]c(NN=CC2=C(N3CCOCC3)/C(=C\c3ccc(Cl)cc3)CC2)n1	0.71	-9.6
35	O=C(NN=Cc1ccc(Br)o1)c1cncc(Br)c1	0.71	3.2
36	Cc1cccc(C=NNC(=O)C2CCCNC2=O)c1 (centres undefined)	0.69	2.3
37	CC(CC(=O)NCCCN1CCOCC1)=NNC(=O)COc1ccc(Cl)cc1	0.72	2.9
38	Cc1ccc(C=NNC(=O)CNC(=O)c2ccc(C)c([N+](=O)[O-])c2)o1	0.59	2.4
39	Cc1csc(C2=C(O)CN(c3ccc4c(c3)OCCOCCOCCOCCO4)C2=N)n1	0.62	3.4
40	COc1ccc(C=NNC(=O)COc2ccc(Cl)cc2Cl)cc1Cn1nc(C)cc1C	0.77	4.5
41	CCc1ccc(OCC(=O)NN=C(C)c2ccc3c(c2)OCCO3)cc1	0.7	3.6
42	COc1ccc(-c2sc3ccc(OC)cc3c2-c2ccc(OCCN3CCOCC3)cc2)cc1	0.72	-4.0
43	CC(=NOCC(=O)OCC(=O)NC(=O)c1ccc(OC(F)F)cc1)c1ccc2c(c1)OCO2	0.71	-2.6
44	CC(=NO)c1sc(-c2ccccc2)nc1C	0.68	-0.7
45	CCc1ccc(C(=O)NN=C(C)c2ccncc2)s1	0.68	5.3
46	CC(=NOCC(=O)Nn1c(C)nc2ccccc2c1=O)c1cccs1	0.61	2.9
47	Nc1c(Cl)ncnc1NN=Cc1ccc2ccccc2n1	0.73	8.7
48	CC(CCC(C)C)=NNC(=S)Nc1cc(S(=O)(=O)N2CCOCC2)ccc1N1CCOCC1	0.73	1.7
49	Fc1ccc(COc2ccc(C=Nn3cnnc3)cc2)cc1	0.67	4.2
50	COc1ccc(CC2S/C(=N/N=Cc3ccccc3O)NC2=O)cc1 (centres undefined)	0.71	0.9
51	S=c1[nH]nc(-c2ccccc2)n1N=Cc1cccc(Cl)c1	0.67	-0.6
52	CCCCOc1ccc(C=c2sc3ncnn3c2=O)cc1	0.73	2.6
53	O=c1[nH]c(NN=Cc2ccc(F)cc2)nc2ccccc12	0.67	0.9
54	CN(C)C(=NOC(=O)c1ccccc1)c1nonc1N	0.65	0.5
55	COc1cccc(-c2c(C(=O)NN=CC3CC=CCC3)nnn2-c2nonc2N)c1 (centres undefined)	0.61	3.2
56	COc1cc(C=NNC(N)=O)ccc1OC(=O)c1ccco1	0.7	1.0
57	CCCCC(C)=NNC(=O)c1cn(-c2ccccc2)nc1-c1ccccc1	0.73	3.2
58	CCC(C)C(C)=NNC(=O)c1ccc(COc2ccc(Cl)c(C)c2)cc1 (centres undefined)	0.63	1.7
59	CC(=NN(c1ccccc1)c1ccccc1)c1ccco1	0.68	-0.5
60	O=[N+]([O-])c1cc(S(=O)(=O)Nc2cccc(Cl)c2)ccc1NN=Cc1ccc(N2CCOCC2)cc1	0.73	12
61	CCOc1ccc(CNC(=S)NN=Cc2cccnc2)cc1	0.7	2.6
62	O=C(CON=Cc1ccccc1O)NNC(=O)c1ccccc1Cl	0.69	1.9
63	CN(C)c1ccc(C=NNC(=S)NCc2ccccc2)cc1	0.73	-125
64	COc1cc(C=NNC(=O)CCc2c(C)n[nH]c2C)ccc1O	0.73	-2.6
65	CN1C(=O)C(CC(=O)Nc2ccccc2)SC1=Nc1nccs1 (centres undefined)	0.7	1.5
66	CC(=NNC(=O)C1=NNC(=O)C1C)c1cccs1 (centres undefined)	0.65	6.7
67	CC(=NNC(=O)COc1ccc2ccccc2c1)c1cccs1	0.71	6.3
68	COc1ccc(N(C(C)C(=O)NN=Cc2ccc(OC(C)C)cc2)S(C)(=O)=O)cc1 (centres undefined)	0.67	0.4
69	CC(CC(=O)Nc1ccccn1)=NNC(=O)c1cnccn1	0.68	1.1
70	CCN(CC)C(=N)C(C#N)=NNc1ccc(C)cc1	0.67	9.7
71	Cc1ccc(OCC(=O)NN=C2CCOc3c(C)cccc32)cc1	0.76	2.4
72	Cc1nc2ccccc2cc1C(=O)NN=Cc1ccccc1[N+](=O)[O-]	0.63	1.9
73	CN(C)C=NC(=S)Nc1ccc(Cl)cc1Cl	0.67	6.3
74	O=C(NN=Cc1ccccc1)c1cc(=O)[nH]c2ccccc12	0.67	-8.1
75	Cc1ccc(C=NNC(=O)c2ccc3nc[nH]c3c2)o1	0.7	12
76	COc1ccc(NC(=O)COC(=O)CON=C(C)c2ccc3c(c2)OCO3)cc1S(N)(=O)=O	0.71	5.2
77	Cc1ccc(C=NNC(=O)c2nnn(-c3nonc3N)c2CN(C)C)o1	0.69	10
78	CN(C)C=Nc1cc(=O)n(Cc2ccccc2)c(=O)n1C	0.67	0.1
79	COc1cc2nc(CN(C)CC(=O)Nc3ccc(N4CCOCC4)cc3)[nH]c(=O)c2cc1OC	0.78	5.5
80	O=C(CNc1ccccc1)NN=Cc1ccc([N+](=O)[O-])o1	0.49*	11

Gathered by group: those above with a cyano group.
no.	Compound	E coli growth	UCH37 inh
5	CN(C)c1ccc(C=NNC(=O)CC#N)cc1	0.76	-158
70	CCN(CC)C(=N)C(C#N)=NNc1ccc(C)cc1	0.67	9.7

Further results follow.
no.	Compound	E coli growth	UCH37 inh
81	C(=NNc1nc2ccccc2s1)c1cccs1	0.69	3.8
82	C=C(C)C1CC=C(C)C(=NNC(=O)c2ccc(NC(=O)CC)cc2)C1 (centres undefined)	0.64	2.4
83	O=C(COc1ccc(-c2ccccc2)cc1)NN=Cc1cccnc1	0.72	4.1
84	CCOc1cc(C=NNc2cccc(C(=O)O)c2)ccc1OCC(=O)N1CCCCC1	0.66	0.2
85	O=C(NN=Cc1ccc(Cl)cc1)c1n[nH]c2c1CCCC2	0.71	3.0
86	COc1cc(NC(=O)COC(=O)CON=C(C)c2ccc3c(c2)OCO3)cc(OC)c1OC	0.68	5.3
87	COc1cc(C=NNC(=O)CCC(=O)Nc2ccc(F)cc2)ccc1O	0.66	-0.4
88	CSC(=S)NN=C(C)c1ccccc1	0.67	4.1
89	CC(C)(C)c1ccc(C(=O)NCC(=O)NN=Cc2cccnc2)cc1	0.66	3.6
90	Cc1onc(-c2ccc(Cl)cc2Cl)c1-c1csc(NN=Cc2ccccc2Cl)n1	0.67	-48
91	O=C(NN=Cc1ccccc1)c1ccc(OCc2ccccc2)cc1	0.68	-1.8
92	COc1ccccc1/C=C/C=Nn1c(-c2cc(-c3ccccc3)n[nH]2)n[nH]c1=S	0.65	3.4
93	COCCNC(=S)NN=C(C)c1ccc(C)c([N+](=O)[O-])c1	0.73	5.3
94	O=C(NN=Cc1ccc2c(c1)OCO2)c1ccc(Cl)cc1Cl	0.63	1.6
95	O=C(NN=Cc1cccnc1)c1cccs1	0.65	-2.2
96	N#Cc1ccc(Oc2ccc(C=NO)cn2)cc1	0.78	4.9
97	CC(=NNc1ccc(F)cc1F)c1ccc(N2CCOCC2)cc1	0.63	5.1
98	Cc1ccc(C(=O)NN=Cc2sc(=O)n(Cc3cccc(C(=O)O)c3)c2Cl)cc1	0.71	1.1
99	CC(=NNc1ccc(S(N)(=O)=O)cc1[N+](=O)[O-])c1ccco1	0.71	1.9
100	COc1ccc(C(C)=NNC(=O)CN(c2ccc(OC)cc2)S(=O)(=O)c2ccccc2)cc1	0.64	3.1
101	Cc1ccc(S(=O)(=O)NN=Cc2ccc([N+](=O)[O-])o2)cc1C	0.48*	1.3
102	COc1ccccc1C=NNC(=O)c1cc2c(OC)c(OC)ccc2[nH]1	0.7	-8.0
103	Cc1ccc(C)c(NC(=O)CCC(=O)NN=Cc2ccc[nH]2)c1	0.68	2.4
104	COCc1c(C(=O)NN=CC2CC=CCC2)nnn1-c1nonc1N (centres undefined)	0.67	1.8
105	CC(C)CCN(C)c1ccc(C=Nn2cnnc2)cc1	0.71	-17
106	Cc1cc(NC(=NS(=O)(=O)c2ccc(Cl)cc2)c2ccc(F)cc2)no1	0.72	5.5
107	Cc1ccccc1N(CC(=O)NN=Cc1cc(C)n(-c2ccccc2C)c1C)S(C)(=O)=O	0.78	5.6
108	Cc1nc2c(C)cccc2cc1C(=O)NN=Cc1ccc(C(=O)O)cc1	0.72	3.4
109	COc1ccc(C=NNC(=O)CCc2c(C)n[nH]c2C)cc1OC	0.69	3.3
110	COc1ccc(CSCC(=O)NN=Cc2ccc(OCC(=O)N3CCCCC3)cc2)cc1	0.68	-2.1
111	COc1cc(C=NNC(=O)CN(CCc2ccccc2)S(=O)(=O)c2ccc(NC(C)=O)cc2)cc(OC)c1OC	0.66	2.3

Not all compounds are listed. The share of hits here may be higher or lower than overall.
